Source: PubChem BioAssay
Biofilm kill mix: mixtures killing C. albicans biofilm | C. albicans biofilm persisters + clotrimazole, fluorescence viability; primary screen in compound mixtures of four per well | inhibition, % at 7.6 µM | actives 0.02% (n = 120,000) | AID 1242;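 active = inhibition above 30.3% in the primary screen of four-compound pools, then above 30% when the compound was retested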;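 note: compounds exposed to preformed 24 h biofilms for 48 h; the number belongs to the whole pool; some results filed as inactive read as strong as hits; inactives centre near 12; 0% = biofilm with clotrimazole alone and 100% = kill control; retested singly at about 60 µM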
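Test system: C. albicans biofilms. Buffer or medium: RPMI/MOPS medium, pH 7.0. Timing: 48 h compound exposure at 37 °C. Technique: Alamar Blue fluorescence. Evaluation: percent inhibition of biofilm viability.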
* marks the source's active call; other numbers are inactive results.

smiles | Biofilm kill mix
CCc1ccc(-c2nnn(CCC#N)n2)cc1 | 13
O=C(CN1C(=O)NC2(CCOc3ccccc32)C1=O)Nc1cccc(Cl)c1 (centres undefined) | 10
COc1ccccc1C(CC(=O)Nc1ccc(Cl)cc1)c1ccc(OC(C)C)cc1 (centres undefined) | 1
CC(C)(C)NC(=O)c1cc(C(C)(C)C)c(O)c(C(C)(C)C)c1 | -8
CC(=O)NC1=NN(C(C)=O)C(c2ccccc2)S1 (centres undefined) | 24
O=C(/C=C/c1ccc(F)cc1)c1ccc(N2CCOCC2)cc1 | 19
O=C(N/C(=C\c1cccs1)C(=O)N1CCOCC1)c1cccs1 | 3
O=C(OCc1ccccc1)C1=NNC2C(=O)N(c3ccccc3)C(=O)C12 (centres undefined) | 22
Cc1ccc(NC(=O)CSCc2ccco2)cc1 | 13
CC(C)Oc1ccccc1/C=N/NC(=O)c1ccccc1Cl | 19

Additional compounds follow.
smiles | Biofilm kill mix
COc1ccc(C(=O)On2c(-c3ccc(Br)cc3)nc3ccccc3c2=O)cc1 | 20
CC(C)(C)C(=O)Nc1nc2c(s1)CN(Cc1ccccc1)CC2 | 6
COc1ccc(NC(=O)C2Cc3ccccc3C(=O)O2)cc1 (centres undefined) | 7
C[C@@H](O)C1NC(=O)[C@H](CCCCN)NC(=O)c2cc([N+](=O)[O-])cc(I)c2OCC[C@@H](C(N)=O)NC1=O (some centres undefined) | 7
Cc1cc(C)c2c(CN3CCOCC3)cc(=O)oc2c1C | 18
COc1cc(C(=O)NC(=S)Nc2cccc3nc(C)ccc23)cc(OC)c1OC | 26
C=CC[n+]1c(C)csc1Nc1cccc(Br)c1 | 7
Cc1cc(N/N=C/c2ccccc2O)nc(N2CCOCC2)n1 | 17
COC(=O)c1sccc1NC(=O)CSCCc1ccncc1 | 12
O=C(NNC(=O)c1cccc2ccccc12)c1ccc2c(c1)OCO2 | 18

The results go on.
smiles | Biofilm kill mix
COc1ccccc1NC(=O)COC(=O)c1c[nH]c(=O)[nH]c1=O | 21
Cc1nc2cc(C)c(C)cc2s1 | 8
NS(=O)(=O)c1ccc(N/C=C\C(=O)c2ccncc2)cc1 | 25
COC(=O)c1ccc(/C=C(\C#N)C(=O)NC(C)c2ccccc2)cc1 (centres undefined) | 28
O=C(C1=C[C@H](c2ccccc2)C[C@H](OCCCCO)O1)N1CCOCC1 | 16
COc1ccc(C(=O)N2CCOC2CNC(=O)C(=O)NCc2ccco2)cc1 (centres undefined) | 13
O=C(CCc1ccccc1)OCC(=O)c1ccc([N+](=O)[O-])cc1 | 17
Cc1ncc(CO)c(/C=N/N=C/c2ccccc2O)c1O | 25
CCN1C(=O)CC(N2CCC(c3nc4ccccc4[nH]3)CC2)C1=O (centres undefined) | -8
COC(=O)c1ccc(Cl)c(NC(=O)Cc2ccccc2[N+](=O)[O-])c1 | 13

The list continues:
smiles | Biofilm kill mix
COC(=O)Nc1ccc(S(=O)(=O)N2CCC(C(=O)N3CCC(C)CC3)CC2)cc1 | 13
CN(C)c1ccc(C=C(c2nnnn2-c2ccccc2)c2nnnn2-c2ccccc2)cc1 | 8
Nc1cc(=O)[nH]c(SCC(=O)Nc2ccc([N+](=O)[O-])cc2)n1 | 22
CC(C)(C)CN1C(=O)C(=O)NC[C@H]1Cc1ccc(O)cc1 | 14
COc1ccc(-n2ccnc2SCC(=O)NO)cc1 | -3
CCOC(=O)N1CCC(N(CCN(C)C)C(=S)Nc2cccc(Cl)c2)CC1 | 19
CCCC(=O)Nc1cc(C(=O)O)ccc1Sc1ccccc1 | 12
Cc1sc2ncnc(SCC(=O)NC(=O)NCc3ccco3)c2c1C | 10
O=C(NC1CCCCC1)C(c1ccc(Cl)cc1)N(C(=O)c1ccccn1)c1cccnc1 (centres undefined) | 6
CC1CC(C)(C)NC(=S)N1CC(=O)N1CCN(Cc2ccc3c(c2)OCO3)CC1 (centres undefined) | 6

Other records:
smiles | Biofilm kill mix
C=C(C)Cn1c(-c2ccncc2)n[nH]c1=S | 8
O=C(NCc1ccccc1)c1cc[n+](Cc2ccccc2)cc1 | 6
Nc1c(C(=O)O)cnn1-c1ccc([N+](=O)[O-])cc1 | 31
NC(=O)c1ncn([C@@H]2O[C@H](CO)[C@@H](O)[C@H]2O)n1 | 10
COc1ccc(CCNC(=O)C(C(=O)c2ccc(F)cc2)n2ccccc2=O)cc1OC (centres undefined) | -8
O=C(O)CCC(=O)NCc1cn(-c2ccccc2)nc1-c1cccc(Br)c1 | 15
CC(C)OCCCNC(=O)CNC(=O)c1ccc(Cl)c(Cl)c1 | 11
CCC(C)NC(=O)Cn1cc(S(=O)(=O)N2CCN(c3ccccc3F)CC2)c2ccccc2c1=O (centres undefined) | 8
CC(C)(C)c1ccc(OCc2ccc(C(=O)NN)o2)cc1 | 4
Brc1ccc(N=C(c2ccccc2)c2ccncc2)cc1 | -1

Pulled by compound from above:
smiles | Biofilm kill mix
CC(C)(C)c1ccc(OCc2ccc(C(=O)NN)o2)cc1 | 4
Brc1ccc(N=C(c2ccccc2)c2ccncc2)cc1 | -1
Nc1c(C(=O)O)cnn1-c1ccc([N+](=O)[O-])cc1 | 31

Further records:
smiles | Biofilm kill mix
COc1ccccc1N1CCN(C(=O)COc2cc(C)ccc2C)CC1 | -10
O=S(=O)(c1ccc(Cl)cc1)N1CCN(Cc2ccc(O)c3ncccc23)CC1 | 13
CC1(C)CN(c2ccc(-c3ccnc4ncnn34)cc2)C1=O | 1
Cc1ccc(CNC(=O)C2=NNC(=O)CC2)cc1 | 14
COc1ccc(N=Cc2c(O)n(-c3cccc(C)n3)c(=O)c3ccccc23)c(OC)c1 | 15
Cc1nc2n(n1)C(O)c1cc([N+](=O)[O-])ccc1S2 (centres undefined) | 5
CC12COC3(C(=O)Nc4ccc(Cl)cc4)CC1CCC32C (centres undefined) | 6
Cc1occc1C(=O)N/N=C/C=C\c1ccccc1[N+](=O)[O-] | 8
COc1ccc2c(c1)CC/C2=N\NC(=O)c1ccccc1 | 7
Cc1c(C)c(C)c(C(=O)C2CCN(c3ccc([N+](=O)[O-])cn3)CC2)c(C)c1C | -3

Remaining list, next part.
smiles | Biofilm kill mix
O=C(NC(=S)Nc1ccc(S(=O)(=O)Nc2ncccn2)cc1)c1ccc(Br)cc1 | 0
C=CCn1nnnc1-c1cc(Cl)cc(Cl)c1 | 3
NC(=O)CC(NC(=O)Cc1ccc(Cl)cc1)c1ccc(NC2CCCC2)c([N+](=O)[O-])c1 (centres undefined) | 13
CC1=NN(c2ccccc2)C(=O)/C1=C\c1ccc(Oc2ccc([N+](=O)[O-])cc2[N+](=O)[O-])cc1 | 8
Cc1ccc(C(=O)c2oc3ccccc3c2N)cc1 | 6
CN(Cc1cnn(C)c1)C(=O)C1CCCCC1C(=O)O (centres undefined) | 18
COC(=O)CCC(NC(=O)c1cc(C)oc1C)C(=O)OC (centres undefined) | 18
O=C1Oc2ccccc2C(=O)/C1=C/c1ccccc1O | 15
COc1ccc(CC(=O)N(CC2CCCO2)c2nc3ccccc3s2)cc1 (centres undefined) | 13
C/C(N)=C(/C#N)C(=O)COC(=O)c1cccc(C)c1O | 17

Going on with the list:
smiles | Biofilm kill mix
Cc1cc(/C=C2/C(=O)NN(c3ccccc3)C2=O)c(C)n1-c1cccc(O)c1 | 10
Cc1c(NC(=O)CCSCCc2ccccn2)cccc1[N+](=O)[O-] | 11
CCN(CC)S(=O)(=O)c1ccc(/C=C/C(=O)OCC(=O)Nc2cccc3ccccc23)cc1 | 17
COc1cccc(CNC(=O)CCC2CCCN(Cc3cc(Cl)ccc3O)C2)c1 (centres undefined) | -1
CCN(CC)C(=S)Nc1ccc([N+](=O)[O-])cc1 | -7
Cc1ccccc1OS(=O)(=O)c1cn(C)c(=O)n(C)c1=O | 4
CN(Cc1ccccc1NS(=O)(=O)c1ccc2ccccc2c1)C1CCCCC1 | 7
COC(=O)c1ccccc1NC(=O)COc1ccc(S(=O)(=O)NC(C)C)cc1 | 6
Cc1nc2ccccc2n1CCN1CCOCC1 | 3
COc1ccc(/C=C2\SC(=O)N(CC(=O)Nc3cccnc3)C2=O)cc1OC | 16

Continued:
smiles | Biofilm kill mix
CC(C)CCn1c(=O)c2ccccc2n2c(CN3CCOCC3)nnc12 | 15
S=c1nc(-c2ccccc2Cl)[nH][nH]1 | 19
CC(=O)c1ccc([C@@H]2C[C@]34CN(Cc5cccc(C(F)(F)F)c5)S(=O)(=O)[C@H]3C[C@H]2O4)cc1 | 22
O=C(CN1CCN(c2ccccc2O)CC1)Nc1ccc([N+](=O)[O-])cc1Br | 5
O=C(O)Cn1cc(/C=c2/sc3nc4ccccc4n3c2=O)c2ccccc21 | 1
CCOc1ccc(C(=O)N(CN2CCCC2=O)c2cccc(Cl)c2)cc1 | 2
Cc1nnc(SCC(=O)Nc2ccccc2)n(N)c1=O | 15
CCC(C(=O)NCc1ccncc1)c1ccccc1 (centres undefined) | -3
Cc1nonc1C(=O)N/N=C/c1ccc([N+](=O)[O-])o1 | 16
Cc1cc(NC(=O)CSc2nnc(-c3ccco3)n2Cc2ccccc2)no1 | -12

(list continues)
smiles | Biofilm kill mix
COc1cccc(CNC(=O)CSc2ccc(-c3ccccn3)nn2)c1 | 20
CC(C)NC(=O)NS(=O)(=O)c1cnccc1NC1CC2CCC1C2 (centres undefined) | 9
Cc1ccccc1Cn1c(O)c(N=NC(=S)Nc2ccccc2F)c2ccccc21 | 15
CCn1c(C)c(CS(=O)(=O)c2ccccc2)[nH]c1=O | 8
COc1ccc(CN2CCN(CC(O)Cn3c4ccccc4c4ccccc43)CC2)cc1 (centres undefined) | 12
CN(C)/C=C(/C(=O)c1ccc(F)cc1)S(=O)(=O)c1ccc(F)cc1 | 1
O=C(Nc1ccc([N+](=O)[O-])cc1)c1cc(-c2ccccn2)nc2c(Cl)cccc12 | 19
CC(C)Oc1ccccc1OCCN(C)C | 11
CCCCNC(=S)N(C)/N=C/c1ccc(OCc2ccc(C(=O)OC)cc2)c(OC)c1 | 17
C/C(=N\NC(=O)c1ccc(N/N=C(\C)c2ccc(O)cc2)cc1)c1ccc(O)cc1 | 27

(more compounds)
smiles | Biofilm kill mix
O=C(COC(=O)c1cccnc1Cl)NCC1CCCO1 (centres undefined) | 9
O=C(Nc1cccn(Cc2c(Cl)cccc2Cl)c1=O)C1CC1 | 2
CCOC(=O)N1CCN(CC(O)COCc2ccc(OC)c(OC)c2)CC1 (centres undefined) | 7
CCc1cccc(N(C(=O)c2csnn2)C(C(=O)NC(C)(C)C)c2ccccn2)c1 (centres undefined) | 6
CCOC(=O)C1=C(C)OC(N)=C(C#N)C1c1cccs1 (centres undefined) | 12
CCOC(=O)Cc1csc(NC(=O)c2c(O)c3c(n(CC(C)C)c2=O)CCCC3)n1 | 17
COc1ccc(OC)c(NC(=O)Cn2c(CCC(=O)O)ccc2-c2ccccc2)c1 | 14
Clc1ccccc1-c1nc(/C=N/N2CCOCC2)c2ccccn12 | 18
Cc1ccccc1OCCNC(=O)/C=C/c1ccc([N+](=O)[O-])cc1 | 13
CCN(CC)CCC/C(=N\O)C(O)(c1ccccc1)c1ccccc1 | 21

Additional structures follow:
smiles | Biofilm kill mix
O=C(O)CCc1cccnc1 | 23
COC(=O)c1ccc(NC(=O)CSC2=NCCN2)cc1 | 16
CCCCc1ccc(NC(=S)N2CCC(O)CC2)cc1 | 16
CCc1cc2ccc(OC)cc2nc1SCC(=O)NNC(C)=O | 13
CCOC(=O)c1nc(-c2ccccc2)oc1N1CCOCC1 | 4
Cc1[nH]c2ccccc2c1/C=C/c1nc2ccccc2c(=O)n1-c1cccc([N+](=O)[O-])c1 | -2
CCOC(=O)C1CCCN(c2cc(C)nc3cc(-c4ccc(Cl)cc4)nn23)C1 (centres undefined) | 11
CC(=C/C(=O)O)/C(=C\c1ccc(Br)o1)C(=O)O | 24
O=C(COc1ccccc1Cl)NC(=S)Nc1ccc(CN2CCOCC2)cc1 | 5
Cc1c(CN2CCC(CO)(Cc3cccc(C(F)(F)F)c3)CC2)c2ccccc2n1C | 6

Entries from the list above that contain a thiophene ring, fused or not (four):
smiles | Biofilm kill mix
O=C(N/C(=C\c1cccs1)C(=O)N1CCOCC1)c1cccs1 | 3
COC(=O)c1sccc1NC(=O)CSCCc1ccncc1 | 12
Cc1sc2ncnc(SCC(=O)NC(=O)NCc3ccco3)c2c1C | 10
CCOC(=O)C1=C(C)OC(N)=C(C#N)C1c1cccs1 (centres undefined) | 12

(more compounds)
smiles | Biofilm kill mix
CCCN1C=CC(=CC=C(C#N)C#N)C=C1 | 10
CC(C)(CO)N1CCN(C(=S)Nc2ccccc2)CC1 | 18
Cc1cc(/C=C(\C#N)C(=O)Nc2ccccc2)c(C)n1-c1cccnc1 | 14
COc1ccc(S(=O)(=O)N2CCc3ccccc32)cc1C(=O)Nc1cccnc1 | 17
CC(=O)N1CCc2cc(Br)cc(S(=O)(=O)CCC(=O)N3CCN(c4ccccn4)CC3)c21 | 15
CCC(=O)NC1OC(CO)C(O)C(O)C1O (centres undefined) | 13
CN1CCN(c2nc3c(c(=O)[nH]c(=O)n3C)n2CCCSc2nnnn2-c2ccccc2)CC1 | 10
O=C(Nc1cccc(S(=O)(=O)N2CCCC2)c1)c1ccc2c(=O)n3c(nc2c1)CCCCC3 | -3

In the list so far, these have a CF3 group:
smiles | Biofilm kill mix
CC(=O)c1ccc([C@@H]2C[C@]34CN(Cc5cccc(C(F)(F)F)c5)S(=O)(=O)[C@H]3C[C@H]2O4)cc1 | 22
Cc1c(CN2CCC(CO)(Cc3cccc(C(F)(F)F)c3)CC2)c2ccccc2n1C | 6

This is a subset; the hit share may differ from the screen's.
